AmpC inh no det: inhibitors of E. coli AmpC beta-lactamase without detergent; AID 585; 71,000 compounds, 1.8% hits; AmpC nitrocefin hydrolysis, absorbance 480 nm, no detergent; potencies from a single point are estimates; Potency, µM (highest dose often 28.7 µM), for inactives: at the highest dose activity change, negative = inhibition; active = falling curve, for most hits resting on a single point; inconclusive = weak or doubtful change; inactive = flat or rising curve; also: % of control where 0% means no effect; about half of the hits show no inhibition at the top dose; a quarter of the inactives give rising signals
Target sequence (P00811 whole entry, looked up): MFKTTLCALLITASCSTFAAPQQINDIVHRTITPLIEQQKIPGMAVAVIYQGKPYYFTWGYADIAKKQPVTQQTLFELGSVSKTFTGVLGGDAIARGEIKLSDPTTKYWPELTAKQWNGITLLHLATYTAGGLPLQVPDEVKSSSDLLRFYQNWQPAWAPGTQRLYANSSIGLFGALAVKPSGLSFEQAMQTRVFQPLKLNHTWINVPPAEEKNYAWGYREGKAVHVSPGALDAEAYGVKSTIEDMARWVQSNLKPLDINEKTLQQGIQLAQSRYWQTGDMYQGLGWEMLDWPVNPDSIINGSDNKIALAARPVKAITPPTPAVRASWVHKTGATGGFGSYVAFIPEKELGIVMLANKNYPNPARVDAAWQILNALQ
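Enzyme, pH 7.0 phosphate. Compound titrations were pre-incubated with AmpC for 15 min at room temperature before nitrocefin (stock 800 uM) addition; product formation was recorded at 480 nm every 20 s for 4 min.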
The depositor's hits bear a star; ? = inconclusive; [ ] = dose if it differs, or a comment. Potency is read from the fitted curve at half-maximal effect.

SMILES	AmpC inh no det
Cn1c(=O)c2c(nc(NCCc3ccccc3)n2Cc2ccccc2)n(C)c1=O	26.2%
CC(C)CSc1nnc2[nH]c(=O)cc(N)n12	4.9%
c1ccc2c(c1)OCC(c1nnc3n1-c1ccccc1SC3)O2 (centres undefined)	46.9%
O=C(N1CCOCC1)N1CCOCC1	-17.5%
O=C(CSc1nnc(COc2ccccc2)n1-c1ccccc1)c1cccs1	26.1%
COc1cccc(C2C(C(=O)c3cc4ccccc4o3)=C(O)C(=O)N2c2cc(C)on2)c1OC (centres undefined)	-19.5%
CC(C)CC(NS(=O)(=O)c1ccc2c(c1)oc(=O)n2C)C(=O)NCc1cccnc1 (centres undefined)	3.98µM*[single pt active]
Nc1ncn([C@@H]2O[C@@H](CO)[C@@H](O)[C@H]2O)c(=O)n1	1.2%
COC(=O)c1ccccc1NC(NC(=O)c1ccco1)C(=O)c1ccccc1 (centres undefined)	34.3%
COc1ccc(C2(NC(C)=O)CCN(C(=O)CCC(=O)O)CC2)cc1	-1.1%
COc1ccc(N(C(C)=O)S(=O)(=O)c2cc(OC)ccc2OC)cc1	16.2%
O=C(Nc1ccc2c(c1)OCO2)c1ccc(Br)s1	-18.8%
COc1ccc(C(=O)N2CCC[C@@]3(CCN(Cc4ccncc4)C3)C2)cc1	-6.2%
O=S(=O)(Nc1ccc(F)cc1)N1CCCCCC1	-5.5%
COc1ccccc1NC(=O)CCN1C(=O)C2CC=C(Cl)CC2C1=O (centres undefined)	7.2%

Structures listed so far that have a thiophene ring, fused or not, in the order listed:
SMILES	AmpC inh no det
O=C(CSc1nnc(COc2ccccc2)n1-c1ccccc1)c1cccs1	26.1%
O=C(Nc1ccc2c(c1)OCO2)c1ccc(Br)s1	-18.8%

New compounds follow.
SMILES	AmpC inh no det
CCOc1ccc(OCC)c(NC(=O)CN(C)S(=O)(=O)c2cccc3nsnc23)c1	42.0%
COC(=O)CC1=C(C)C(=O)CC2C(C)(C)CCCC12C (centres undefined)	47.9%
C[N+]1(C)[C@@H]2CC[C@H]1CC(OC(=O)c1c[nH]c3ccccc13)C2 (some centres undefined)	1.1%
CC(=O)N(C)c1ccc(NC(=O)c2ccccc2C(=O)O)cc1	-1.3%
COCCn1c(=O)c(-c2ccc(OC)cc2)nc2cnc(N3CCOCC3)nc21	17.1%
CC1CC(C)CN(c2ncc3c(n2)CC(c2ccc(Cl)cc2)CC3=O)C1 (centres undefined)	0.4%
c1cncc(-c2nnc(-c3ccco3)o2)c1	-0.6%
Cc1cc(C)n(-c2ccc(C(=O)OCC(=O)NCc3ccco3)cc2)n1	32.1%
CCOC(=O)c1cccc(NC(=O)Cn2cnc3c2c(=O)n(C)c(=O)n3C)c1	24.0%
Clc1cccc(Cl)c1NC1=NCCN1	1.2%
CCOC(=O)N1CCN(c2c(Nc3cc(C)[nH]n3)c(=O)c2=O)CC1	2.51µM*[single pt active]
O=C(O)CCCc1ccc(N(CCCl)CCCl)cc1	-3.0%
O=C(CSc1nnc(COc2ccccc2)n1Cc1ccco1)NCc1ccco1	23.5%
CC(=O)N1CCC[C@@]2(CCN(Cc3cc(C(F)(F)F)cc(C(F)(F)F)c3)C2)C1	61.6%
O=C(Nc1nc2ccc(S(=O)(=O)N3CCCC3)cc2s1)C1CCCCC1	5.3%
CCc1nc2cc(C)nn2c2nc3ccccc3n12	-1.0%
CCOC(=O)c1c(CN2CCCCC2)n(C)c2cc(Br)c(OC)cc12	51.1%
CC(NC(=O)CN1CCC(C(N)=O)CC1)c1ccccc1 (centres undefined)	-2.6%
CCOC(=O)c1cccnc1SC(CC)C(=O)N1CCOCC1 (centres undefined)	4.7%
CN1CCN(C(CNS(=O)(=O)c2ccc(Cl)cc2)c2cccnc2)CC1 (centres undefined)	-1.9%
Cc1cc(C)c(S(=O)(=O)Nc2ccccc2C(F)(F)F)c(C)c1	-9.2%
CCn1cc(-c2cc(C(F)(F)F)n3nc(C(=O)O)cc3n2)c(C)n1	-7.0%
COC(=O)c1ccccc1NC(=O)CSc1nnnn1C1CCCCC1	22.2%
CCOc1cc(-c2noc(CCC(=O)Nc3cccnc3)n2)ccc1OC	35.4%
CC(=O)Nc1nc2n(n1)C(c1ccccc1)C=C(c1ccccc1)N2 (centres undefined)	-1.0%
CC(=O)N1CCn2c3c(c(=O)c4cc(C)ccc42)CCC31 (centres undefined)	1.2%
O=C(OCCN1CCCCC1)c1ccc(O)cc1	-1.1%
COC(=O)c1ccc(OC(=O)C2CC(=O)N(c3ccc(C)cc3C)C2)cc1 (centres undefined)	71.6%
CCOC(=O)C1C(=O)NC(N2CCOCC2)=NC1C(C)C (centres undefined)	-5.5%
CCOc1ccccc1C(=O)Nc1nccs1	1.4%
Cc1cc(C)c(S(=O)(=O)N(CC(=O)O)C2CCCCC2)c(C)c1	84.3%
Cc1cnnc2c1-c1nonc1CC2	-1.8%
COCCNC(=O)[C@@]1(Cc2ccccc2)C=C[C@@H](C)N1C(C)=O	4.7%
C=CCn1c(SCC(=O)c2cccs2)nc2sc(C)cc2c1=O	-1.7%
CCCC1(C(=O)OC)C=C2C(=C(c3ccccc3)C(=O)C2C)CN1 (centres undefined)	37.6%
Cc1cc(N2CCN(C)CC2)nc2ccc(NC(=O)c3ccc4c(c3)OCO4)cc12	83.6%
COc1ccccc1-c1nnc(NC(=O)OCC(C)C)s1	6.4%
COc1ccc(-n2c(SCC(N)=O)nnc2-c2ccccc2F)cc1	27.3%
COc1ccc(NC(=O)Nc2cccc(C)n2)cc1	3.98µM*[single pt active]
CN1CCN(c2ncc3nc(-c4ccccc4)c(=O)n(Cc4ccc(F)cc4)c3n2)CC1	126.7%
COc1cccc(-c2csc(N3CCN(CC(=O)Nc4ccc5c(c4)OCO5)CC3)n2)c1	26.1%
COc1cc2c(cc1OC)CN(S(=O)(=O)c1ccc3c(c1)OCCO3)CC2	4.4%
Cc1cc(C)nc(N(C#N)CC(=O)Nc2ccccc2)n1	5.5%
COc1cccc(Cn2c(=O)c(C)nc3cnc(N4CCN(C)CC4)nc32)c1	90.9%
O=C(Nc1cccc(-c2cn3cccnc3n2)c1)c1ccc(Br)o1	-2.5%
CCC(=O)N(Cc1cc(=O)[nH]c2ccccc12)C1CCCCC1	12.2%
O=C(c1ccncc1)N1CCC2(CC1)CN(c1ccccc1)C2	52.5%
CC[C@H](C(=O)c1cccs1)C(O)(C(F)(F)F)C(F)(F)F	-4.8%[5.75 µM]
CCS(=O)(=O)c1nc2ccccc2n1CC(=O)N1CCCCC1	-1.5%
COc1ccc2[nH]cc(C(=O)CN3CCN(C(=O)c4ccco4)CC3)c2c1	15.2%
Cc1cccc(N2C(=O)CC(N3CCN(c4cccc(C(F)(F)F)c4)CC3)C2=O)c1 (centres undefined)	54.1%
Cc1cc(NC(=O)CCC(=O)N(CC(=O)NC2CCCC2)c2ccc3c(c2)OCCO3)no1	?
CCNC(=O)CC1C(=O)N(c2ccc(F)cc2)C(=O)N1CCc1ccc(OC)cc1 (centres undefined)	15.1%
COc1ccccc1-c1nccc(NCc2cccnc2)n1	26.0%
O=C(c1ccccc1NS(=O)(=O)c1ccc(Br)s1)N1CCOCC1	-5.5%
O=c1[nH]c2ccc(S(=O)(=O)N3CCN(C4CCCCC4)CC3)cc2[nH]c1=O	-8.5%
CC(C)Cn1c(SCC(=O)NC2CCCc3ccccc32)nc(O)cc1=O (centres undefined)	-2.6%
O=C(NCC(c1cccnc1)N1CCN(c2ccccc2F)CC1)c1ccccc1 (centres undefined)	44.0%
O=C(CSc1nnc(Cc2cccs2)n1Cc1ccco1)Nc1cccc(Cl)c1	-10.3%
CCc1ccc(NS(=O)(=O)c2ccc3[nH]cc(C(=O)N4CCCCC4)c(=O)c3c2)cc1	-4.8%

(cont.)
SMILES	AmpC inh no det
Cc1cc(F)ccc1S(=O)(=O)Nc1ccccc1C(=O)Nc1ncn[nH]1	-20.1%
Cc1ccccc1CN1C2=NCCN2c2ccccc21	-9.3%
OCCNc1nc(-c2cccnc2)nc2ccccc12	-5.4%
O=C1CC(N2CCC(O)(c3ccc(Cl)cc3)CC2)C(=O)N1 (centres undefined)	-13.2%
CCc1nnc(NC(=O)C2CC(=O)N(Cc3ccco3)C2)s1 (centres undefined)	3.4%
Cc1ccoc1C(=O)NCCCNC(=O)c1occc1C	14.6%
c1ccc(Cc2nnc3sc(-c4cccs4)nn23)cc1	15.1%
CCOc1ccccc1C1C2C(=O)N(c3ccccc3)C(=O)C2ON1c1ccccc1 (centres undefined)	?
N=c1n(CCO)c2ccccc2n1Cc1ccc(Cl)cc1	-14.9%
CCOc1cccc2cc(-c3csc(NC(=O)CCC(=O)N4CCN(C)CC4)n3)c(=O)oc12	96.1%
COc1cccc(NS(=O)(=O)c2ccc3[nH]cc(C(=O)NCCCOC(C)C)c(=O)c3c2)c1	-2.1%
COc1ccc(COC(=O)c2ccc(N3CCCC3=O)cc2)cc1F	68.5%
COc1ccc(OCC(O)CNc2ccc(Br)cc2)cc1 (centres undefined)	16.6%
CC(C)n1c(SCc2ccccc2F)nc2c1c(=O)n(C)c(=O)n2C	106.4%
COC(=O)c1sc(N)c(C(=O)OC)c1CSc1nc2sc3c(c2c(=O)n1C)CCC3	5.9%
Cc1nnc2ccc(-c3cccc(C(F)(F)F)c3)nn12	14.5%
O=C(N1CCN(c2ccccc2)CC1)C(F)(F)C(F)F	11.4%
C#CCN1C(=O)C(O)(CC(=O)c2ccc3c(c2)OCCO3)c2ccccc21 (centres undefined)	0.9%
Cc1nn(Cc2ccccc2)c(Cl)c1C(=O)NCc1ccc(C)n1C	88.4%
COc1ccc(OC)c2[nH]c(=O)c(CCNC(=O)c3ccc(Br)o3)cc12	29.1%
CCc1ccc(-c2nn[nH]n2)cc1	4.7%
CCOC(=O)CNC(=O)CSc1nc2cccnc2n1C	2.8%
COc1ccc(CCN(C(=O)c2ccc(F)cc2)C2=CC3CCC(C2)N3C)cc1OC (centres undefined)	-2.8%
c1ccc(-c2nnc(-c3ccco3)n2-c2ccccc2)cc1	15.9%
O=C(CNC(=O)c1ccc(Cl)cc1)NCCCn1ccnc1	10.2%
Cn1c(NC(=O)C2CCCO2)cc(=O)n(C)c1=O (centres undefined)	2.6%
Cc1noc(C)c1C(=O)N1CCC2(CC1)CCN(c1ccncc1)CC2	9.5%
CS(=O)(=O)c1nncn1-c1ccccc1	-6.5%
O=C(CSc1nnc(CNC(=O)c2ccccc2F)o1)c1ccc(Cl)cc1	11.6%
Cc1nnc(Nc2ccc3c(c2)ncn3C)c2ccccc12	4.6%

Looked up by compound from the entries so far (4):
SMILES	AmpC inh no det
COc1ccc(CCN(C(=O)c2ccc(F)cc2)C2=CC3CCC(C2)N3C)cc1OC (centres undefined)	-2.8%
CCc1ccc(-c2nn[nH]n2)cc1	4.7%
Cc1nnc(Nc2ccc3c(c2)ncn3C)c2ccccc12	4.6%
COc1ccc(OC)c2[nH]c(=O)c(CCNC(=O)c3ccc(Br)o3)cc12	29.1%

Additional compounds
SMILES	AmpC inh no det
O=C(NCCN1CCOCC1)c1ccc2c(c1)ncn2C1CCCC1	15.2%
CCOC(=O)N1CCN(C(=O)CSCC(=O)N=c2sc3cc(OC)ccc3n2C)CC1	102.4%
Cc1ccc(C(=O)N2CCOCC2)cc1Cl	1.0%
Cc1cc(C(=O)O)c(CCCN)s1	-2.3%
COc1ccc(N2CCN(C(=O)c3ccc(C)c(Cl)c3)CC2)cc1	76.2%
Cc1cc(C)n2nc(SCc3nc4ccccc4[nH]3)nc2n1	14.5%
CC1Oc2ccccc2N(CC(=O)c2ccccc2)C1=O (centres undefined)	16.3%
CCOc1ccccc1-n1c(SCC(=O)NCc2ccco2)nnc1-c1ccncc1	19.9%
COc1ccc(S(=O)(=O)N(C)CC(=O)N2CCOCC2)cc1Cl	12.9%
O=C(OCc1cc2ccccc2[nH]c1=O)c1ccccn1	3.0%
CC(=O)N1CCN(c2ccc(NCc3ccc(F)cc3)cc2)CC1	84.6%
CC(C(=O)NC1CCCc2ccccc21)N1CCN(Cc2ccc3c(c2)OCO3)CC1 (centres undefined)	100.0%
CC1(NC(=O)N2CCCCC2)CCS(=O)(=O)C1 (centres undefined)	-5.3%
CC1Cc2ccccc2N1C(=O)CSCC(=O)O (centres undefined)	-22.0%
COc1ccc(OC)c2c(C)cc(N3CCCN(C)CC3)nc12	22.8%
COc1ccc(-n2c(Cc3cccn3C)nnc2SCC(=O)N2CCOCC2)cc1	134.0%
O=C(O)CCCC(=O)NCCc1ccncc1	-10.8%
COc1ccc(-n2cnc3c(sc4nccc(N(C)C)c43)c2=O)cc1	-3.1%
CC1CCCCC1NC(=O)c1nnc(Cc2ccc(Cl)cc2)o1 (centres undefined)	16.1%
CCn1c2ccccc2c2cc(NC(=O)Cc3ccc(S(=O)(=O)N4CCOCC4)s3)ccc21	-9.6%
CC(=O)O[C@@H]1C[C@]2(C)[C@H](C[C@@H](O)[C@H]3[C@@]4(C)CC[C@@H](O)[C@@H](C)[C@@H]4CC[C@@]32C)/C1=C(\CCC=C(C)C)C(=O)O	11.2%
CC1CCCC(C)N1C(=O)CSc1nnc(NC(=O)Cc2cccs2)s1 (centres undefined)	-16.4%
O=C(CCN1C(=O)c2ccccc2C1=O)Nn1cnnc1	-11.8%
O=C(OCC(COC(=O)c1ccccc1)(COC(=O)c1ccccc1)COC(=O)c1ccccc1)c1ccccc1	-14.1%
COc1cc(OC)c(C(=O)NC2CC(C)(C)NC(C)(C)C2)cc1OC	-7.5%

Shown as comma-separated lines: entries from further up.
Compound,AmpC inh no det
CC(=O)O[C@@H]1C[C@]2(C)[C@H](C[C@@H](O)[C@H]3[C@@]4(C)CC[C@@H](O)[C@@H](C)[C@@H]4CC[C@@]32C)/C1=C(\CCC=C(C)C)C(=O)O,11.2%
O=C(CCN1C(=O)c2ccccc2C1=O)Nn1cnnc1,-11.8%
O=C(O)CCCC(=O)NCCc1ccncc1,-10.8%
CCn1c2ccccc2c2cc(NC(=O)Cc3ccc(S(=O)(=O)N4CCOCC4)s3)ccc21,-9.6%
COc1ccc(-n2c(Cc3cccn3C)nnc2SCC(=O)N2CCOCC2)cc1,134.0%
COc1ccc(-n2cnc3c(sc4nccc(N(C)C)c43)c2=O)cc1,-3.1%
CC1CCCC(C)N1C(=O)CSc1nnc(NC(=O)Cc2cccs2)s1 (centres undefined),-16.4%

Only part of the results is shown; count on the stated rates, not on these rows.
